D2 agonist = agonists of human D2 dopamine receptor (beta-arrestin). AID 624465. activation, % (test concentration not listed). P14416. actives 0.084% (n = 360,000). DiscoveRx PathHunter D2 beta-arrestin, luminescence, 90 min; 100% = 57 uM dopamine signal; in the data active = activation above about 40%; inconclusive = about 15% to 40%; inactive = below about 15%; note: compound concentration not given in the record; the text of the record calls up to 30% inactive
Target sequence (P14416 whole entry, looked up): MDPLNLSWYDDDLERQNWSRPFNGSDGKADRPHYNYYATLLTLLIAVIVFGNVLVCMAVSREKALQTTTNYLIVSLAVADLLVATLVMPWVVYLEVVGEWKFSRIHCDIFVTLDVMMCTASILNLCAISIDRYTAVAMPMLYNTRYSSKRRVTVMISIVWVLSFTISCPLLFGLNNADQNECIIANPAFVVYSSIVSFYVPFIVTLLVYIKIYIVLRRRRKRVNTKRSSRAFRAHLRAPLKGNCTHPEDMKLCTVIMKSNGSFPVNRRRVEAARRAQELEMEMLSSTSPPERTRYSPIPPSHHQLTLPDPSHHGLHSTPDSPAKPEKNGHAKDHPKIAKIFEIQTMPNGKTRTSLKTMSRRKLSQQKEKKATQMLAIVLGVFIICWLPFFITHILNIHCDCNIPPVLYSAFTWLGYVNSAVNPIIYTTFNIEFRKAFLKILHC
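Agonist mode: compounds alone added to overnight-plated D2 PathHunter cells for 90 min at 37 C, with 57 uM final dopamine (EC100) defining full response. Beta-arrestin recruitment detected by chemiluminescent reagent, read after 1 h at ambient temperature.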
Sfp inh = inhibitors of Bacillus subtilis Sfp phosphopantetheinyl transferase; Q9F4F7; actives 3.5% (n = 310,000); AID 1490; Potency, µM, for inactives: max response, negative = inhibition, most hits filed as inhibitors; Biochemical Sfp PPTase activity, qHTS; active = well fitted inhibition curve with a large enough effect; inconclusive = small, poorly fitted or top-dose-only effect, or another doubt; inactive = no such curve, though single readings can be large or run the other way;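 note: the enzyme is Sfp with the accession as filed and its product quenches rhodamine fluorescence; potency is the fitted concentration of half-maximal effect; 0% = enzyme reaction without inhibitor and -100% = no enzyme wells; top concentration of the series not given in the record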
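With Hepes-Na pH 7.6 buffer containing 10 mM MgCl2, Sfp (15 nM) modified BHQ-2-YbbR (12.5 uM) using rhodamine-CoA (5 uM). Two reads 30 minutes apart at 525/598 nm yielded each well's rate.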
ClpP mod = qHTS Assay for Activators of ClpP; purified B. subtilis ClpP, FRET peptide cleavage, 20 min; Potency, µM (series often up to 57.5 µM), for the others: top-dose activity change, negative = active; actives 1.9% (n = 340,000); ATP-dependent Clp protease proteolytic subunit (Bacillus subtilis (strain 168)), P80244; active = well fitted falling curve with a large enough effect; inconclusive = small, poorly fitted or top-dose-only effect; inactive = no such curve, though single readings can be large or run the other way; note: potency is the fitted concentration of half-maximal effect; the source files actives as falling curves though it sought activators and does not explain the sign; nearly all actives have a fitted effect of over 65% in size; many hits overshoot -100%
Target sequence (P80244 whole entry, looked up): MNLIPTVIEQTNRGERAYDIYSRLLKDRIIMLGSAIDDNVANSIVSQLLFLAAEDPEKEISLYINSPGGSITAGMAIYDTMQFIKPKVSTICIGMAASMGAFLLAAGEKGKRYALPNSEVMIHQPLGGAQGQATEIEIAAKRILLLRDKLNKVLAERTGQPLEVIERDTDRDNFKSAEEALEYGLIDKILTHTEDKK
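Purified B. subtilis ClpP, 10 microg/mL final in Tris/HCl pH8 with KCl, BSA, glycerol and Tween-20, cleaved an Abz/nitrotyrosine-quenched decapeptide. Fluorescence (ex 320, em 430) was read at 0 and 20 min at room temperature. Delta was normalized to 5.8 microM ADEP and DMSO/no-enzyme controls.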
gsp agonist = agonists of gsp mutant (McCune-Albright syndrome) | actives 0.13% (n = 340,000) | Potency, µM (doses to about 76.9 µM), inactives show top-dose activation (cAMP increase), hits mostly activators | gsp mutant cells, cAMP HTRF, 30 min; control for the full effect not named in the record; active = well fitted activation curve with a large enough effect; inconclusive = small, poorly fitted or top-dose-only effect, or another doubt; inactive = no such curve, though single readings can be large or run the other way; cell line not stated here;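 note: phosphodiesterase inhibitor Ro 20-1724 added with compounds to block cAMP breakdown; potency is the fitted concentration of half-maximal effect; nearly all actives have a fitted effect of over 60% in size; about a fifth of the inactives were tested at one dose only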
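Cells stably selected in G418 were plated at 2000/well, grown 16-24 hr, then given compounds in DMSO with the PDE inhibitor […] (300 uM solution added) for 30 min at 37C; cAMP was read by HTRF.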
PINK1 expr mod = changes PINK1 expression; PINK1 immunofluorescence, high-content cytometry, 24 h; Potency, µM (top dose mostly 76.6 µM), for the others: at the top dose activation (PINK1 increase), actives largely listed as activators; actives 0.2% (n = 410,000); AID 624263; active = well fitted activation curve with a large enough effect; inconclusive = small, poorly fitted or top-dose-only effect; inactive = flat fitted curve, though single readings scatter; cell line not stated here;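 note: potency is the fitted concentration of half-maximal effect; % of control where 0% means no effect; nearly all actives have a fitted effect of over 65% in size; a mitochondrial uncoupler was the plate control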
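Stable cell line, 250 cells/well, 12 h attachment; compounds pinned at 5 concentrations, 24 h; CCCP control. Fixed with nuclear dye, primary antibodies 12 h at 10 degrees C, secondary plus cell stain; laser-scanning cytometer read.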
Menin MLL FP FL = displaces fluorescein MLL peptide from human menin; Fluorescence polarization, fluorescein-MLL peptide displacement from menin; FP activity change, % at 61.4 µM; 290,000 tested, under 10 active; inconclusive = falling polarisation curve, or a change in total fluorescence; inactive = total fluorescence flat and polarisation flat or rising; no compound was filed as active; the % refers to the polarisation; negative = inhibition;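 note: % of control where 0% means no effect; inhibitors lower the polarisation; unlabelled MLL peptide was the positive control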
gsp antag = antagonists of gsp mutant (McCune-Albright syndrome); gsp-mutant cells, cAMP HTRF, 30 min; control for the full effect not named in the record; Potency, µM (highest dose often 76.9 µM), for inactives: top-dose activity change, negative = inhibition, hits mostly inhibitors; actives 0.4% (n = 340,000); AID 624288; active = falling curve of any shape with a large fitted effect; inconclusive = falling curve, mostly with a smaller effect; inactive = flat or rising curve; cell line not stated here;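 note: intracellular cAMP measured with PDE inhibitor Ro 20-1724 present during compound exposure; potency is the fitted concentration of half-maximal effect; % is set by controls: 0 for no effect and ±100 for the full control effect; nearly all actives have a fitted effect of over 65% in size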
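Measurement of cellular cAMP by homogeneous time-resolved fluorescence following a 30 min compound exposure at 37C. The PDE inhibitor […] was present throughout; the assay buffer was DPBS with 0.05% BSA and 0.005% Tween 20.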
Numbers without * were called inactive; ? = inconclusive; · = not tested or not shown; & = joins results of further samples; [ ] = dose if it differs, or a comment.

SMILES	D2 agonist	Sfp inh	ClpP mod	gsp agonist	PINK1 expr mod	Menin MLL FP FL	gsp antag
CCc1nnc(NC(=O)CSc2ncc(-c3ccccc3)n2CC)s1	0.6	-7%	2.1%	-17%	-1.6%	-0.6	?
COc1cc(C)ccc1OCCCOc1c(Cl)cccc1Cl	-1.9	3%	2.5%	-42%[inhibitor]	8.2%	10	3%
COc1ccc(C(=O)/C=C2/c3ccccc3CC(C)(C)N2C)cc1	-0.4	-8%	-1.8%	28%	?	3.0	11%
Cc1ccc(-n2nc(C)c3c(C)cc(=O)[nH]c32)cc1	1.0	9%	28µM*	24%	0.8%[38.3 µM]	1.9	-4%
CNC(=O)CC1C(=O)N(c2ccc(OC)cc2)C(=S)N1NC(=O)c1cccc(F)c1 (stereo unspecified)	-3.4	15%	·	-8%[15.4 µM]	-0.4%	-5.6	15%
CS(=O)(=O)N(CC(=O)N1CCc2ccccc2C1)Cc1ccc(F)cc1	-3.9	20%	2.5%	-14%	-0.7%	-2.9	-15%
Cc1ccc(N2C(=O)C(CN(C)C)C2c2ccccc2)cc1 (stereo unspecified)	-2.2	16%	-7.1%	-14%	-0.2%	-1.0	7%
COc1ccc(S(=O)(=O)N2CCCC2CNC(=O)C(=O)NCc2ccccc2Cl)cc1 (stereo unspecified)	-2.7	·	·	-11%[15.4 µM]	-0.6%	·	5%
CC1CC(=O)Nc2ccc([N+](=O)[O-])cc2N1C (stereo unspecified)	-1.2	2%	-13%	4%	0.2%	0.6	7%
COc1ccc(C2C(C(=O)N3CC(C)CC(C)C3)c3ccccc3C(=O)N2C)cc1 (stereo unspecified)	-2.1	7%	2.2%	-14%	-1.2%	-0.4	1%
CSc1nsc(SC)c1NC(=O)N1CCCC1	-1.4	-30%	-2.2%	-3%	10%[38.3 µM]	1.9	5%
COc1ccc(N2C(=O)C3C4c5ccccc5C(C=Nc5ccc(C)cc5C)(c5ccccc54)C3C2=O)cc1 (stereo unspecified)	-1.9	·	-5.4%	-6%	-3.1%	·	10%
Cc1c(C(=O)OCC(=O)Nc2cccc(S(N)(=O)=O)c2)oc2c1ccc1ccccc12	-2.9	?	3.5%	-27%	4.8%	6.4	-23%
O=C(CSc1nncs1)Nc1nccs1	-2.0	·	·	-2%[15.4 µM]	-0.5%	·	8%
CCOC(=O)c1c(S(=O)(=O)NCCc2cccs2)c(C)n(C)c1C	-6.0	8%	-1.3%	-11%	-0.1%	·	3%

One compound at a time (already shown). Values in the order: D2 agonist, Sfp inh, ClpP mod, gsp agonist, PINK1 expr mod, Menin MLL FP FL, gsp antag
Cc1c(C(=O)OCC(=O)Nc2cccc(S(N)(=O)=O)c2)oc2c1ccc1ccccc12 in the list: -2.9, ?, 3.5%, -27%, 4.8%, 6.4, -23%
COc1ccc(C(=O)/C=C2/c3ccccc3CC(C)(C)N2C)cc1 in the list: -0.4, -8%, -1.8%, 28%, ?, 3.0, 11%

Next part.
SMILES	D2 agonist	Sfp inh	ClpP mod	gsp agonist	PINK1 expr mod	Menin MLL FP FL	gsp antag
CCOc1ccc(C2c3[nH]c4ccccc4c3CCN2Cc2cn(CC)nc2C)cc1 (stereo unspecified)	-1.6	9%	-28%	-88%[inhibitor]	5.1%	6.3	6%
CC(=O)c1cn(CC(=O)NCc2ccco2)c2ccccc12	1.3	11%	-1.1%	5%	-1.6%	1.1	0%
Cc1ccnc(Sc2ncccc2[N+](=O)[O-])n1	-1.8	7%	0.0%	21%	-1.3%	-0.5	11%
O=C(O)c1ccc(-n2nnnc2SCc2ccccc2)cc1	-1.3	1%	-0.4%	15%	·	0.1	-15%
CC1=C(/C=C/C(C)=C/C=C/C(C)=C/CO)C(C)(C)CCC1	-3.9	?	1.9%	·	3.0%	?	0%
COCCN(C(=O)CCSc1ccc(F)cc1)c1c(N)n(Cc2ccccc2)c(=O)[nH]c1=O	-2.9	·	-2.8%	2%	3.6%	·	9%
CC[C@]12c3[nH]c4ccc(Cl)cc4c3CCN1C(=O)[C@@H](CC(=O)NCCCOC)C[C@@H]2C(=O)N1CCN(C(=O)c2ccco2)CC1	-1.6	·	-1.6%	·	0.0%	·	8%
COc1ccc(S(=O)(=O)N2CCOCC2)cc1C(=O)NCc1c(C)nn(Cc2ccccc2)c1C	-3.7	·	-1.0%	24%	1.6%	·	3%
CCC1CCCCN1CCCNC(=O)C1CCN(S(=O)(=O)N2CCCCC2)CC1 (stereo unspecified)	0.9	9%	-0.2%	-39%[inhibitor]	·	-0.5	0%
CCSc1nnc(NC(=O)CSc2nccn2-c2cccc(C)c2)s1	-1.4	9%	-6.3%	-46%[inhibitor]	0.3%	-1.3	-9%
NC(=O)c1cnn2c(C(F)(F)F)cc(-c3ccccc3)nc12	-0.4	10%	-6.9%	7%	-3.3%	1.6	8%
Cc1cccc(C(=O)C2CCN(S(=O)(=O)c3cccc(C(=O)O)c3)CC2)c1	-7.5	-5%	0.6%	-1%[15.4 µM]	3.5%	-0.5	-5%
Cc1cc2ncn(-c3ncnc4sc5c(c34)CCC(C)C5)c2cc1C (stereo unspecified)	-0.2	21%	0.3%	-1%	2.4%[38.3 µM]	·	14%
COc1ccc(CNC(=O)Cc2c[nH]c3ccccc23)cc1OC	2.2	19%	-3.8%	-49%[inhibitor]	0.8%	-3.2	1%
Cc1nn(C(C)C)c(C)c1CN1CCCC(C(=O)c2cccc(OC(C)C)c2)C1 (stereo unspecified)	-0.3	20%	·	11%	0.8%	3.2	5%
CCN(C(=O)CSc1nnc(CNc2cccc(OC)c2)n1C1CCCCC1)C1CCS(=O)(=O)C1 (stereo unspecified)	-5.0	14%	2.1%	7%	0.1%	·	-3%
CCOC(=O)c1sc(NC(=O)CSc2n[nH]c(CC(C)C)n2)nc1C	-1.0	-5%	1.0%	8%	2.3%	7.1	-23%
Cc1ccc(C)c(NC(=O)CN(C)C(=O)COc2ccc3ccccc3c2)c1	-2.4	·	-0.1%	4%[15.4 µM]	4.0%	·	0%
CCOC(=O)C1CCCN(C(=O)Cn2ncc3c(=O)oc4ccc(C)cc4c32)C1 (stereo unspecified)	-4.0	·	0.5%	-73%[inhibitor]	0.0%	·	9%
COCc1cc(CN2CCCC(CNC(=O)c3ccc(F)cc3)C2)ccc1OC (stereo unspecified)	3.9	5%	·	-1%	11%	-0.4	6%
CC(=O)Nc1ccc2c(=O)n(-c3ccccc3)sc2c1	-0.3	·	0.3%	-54%	0.2%	·	·
O=C(O)c1ccc(NC2CC(=O)N(Cc3ccccc3)C2=O)cc1 (stereo unspecified)	-1.4	5%	0.6%	1%	2.5%	-1.1	11%
Cc1cc(NC(=O)CSCC(=O)N(c2cccc(Cl)c2)C(C(=O)NC2CCCCC2)c2ccc(O)c(O)c2)no1 (stereo unspecified)	-1.1	-9%	-15%	2%	2.8%	-0.3	-16%
OC(c1ccccc1)c1nc(-c2cccc3cccnc23)cs1 (stereo unspecified)	-4.9	·	?	·	0.9%	·	·
O=C(NCCCNC(=O)c1cnccn1)c1ccc(Br)cc1	-0.2	18%	·	-1%	2.1%	-1.3	1%
CN(C(=O)c1cccc(S(=O)(=O)NCc2ccccc2)c1)C1CCCCC1	-2.3	·	-30%	13%[15.4 µM]	-2.0%	·	-11%
CCc1nc2c(OCCOc3ccc(F)cc3)cccn2c1N(C)C(=O)c1cccs1	-2.8	·	-1.7%	·	-0.2%	·	·
COc1ccc(OC)c(-c2csc(NC(=O)CN3C(=O)NC4(CCCC4)C3=O)n2)c1	-0.5	·	·	-7%[15.4 µM]	-0.4%	·	-7%
CCC(=O)N1CCN(c2nc3ccc(Br)cc3s2)CC1	1.3	7%	1.3%	9%	-0.5%	-0.7	-3%
Cc1ccnc(NCc2cc(Cl)ccc2O)c1	-0.9	·	-1.8%	-2%	5.6%	·	·
CCC(C)[C@H](NC(=O)Nc1ccccc1F)C(=O)O (stereo partly specified)	-5.7	9%	0.7%	1%	2.3%	1.6	12%
CCN(C(=O)COC(=O)c1nc2nc(C)cc(C)n2n1)C1CCS(=O)(=O)C1 (stereo unspecified)	-1.2	5%	-1.3%	13%	-0.1%	·	1%
O=c1cc(N2CCN(c3ccccc3)CC2)[nH]c(=O)n1-c1ccccc1	-1.5	-5%	-1.3%	?	1.1%	0.5	4%
CCc1ccc2[nH]c(=O)c(Cc3ccccc3)c(O)c2c1	-4.3	0%	3.9%	-49%[inhibitor]	0.3%	0.1	0%
CCOC(=O)N1CCN(S(=O)(=O)N2CCCC(C(=O)NCc3cc(Br)ccc3OC)C2)CC1 (stereo unspecified)	-2.0	·	1.3%&0.3%	18%	-0.1%&3.9%	·	·
COc1cc(CN2CCNC(=O)C2CC(=O)O)cc(OC)c1 (stereo unspecified)	-1.1	1%	·	-12%[15.4 µM]	0.2%	-1.9	9%
COC(=O)c1ccccc1S(=O)(=O)N1CCC(C(=O)NCCC2=CCCCC2)CC1	-7.5	·	-1.2%	-39%[inhibitor]	-1.0%	·	-4%
Cc1ccc(NC(=S)/C(=C(\[O-])c2ccc(Cl)s2)[n+]2cccc(CO)c2)cc1C	6.3	25µM*	-1.4%	-1%[15.4 µM]	-0.1%	8.1	-36%
Cc1ccc(NC(=O)c2ccc(=O)[nH]n2)cc1C	-5.0	9%	·	13%	0.7%	-9.3	4%
O=C(COC(=O)c1cccc(C(=O)OCC(=O)NCc2ccc(F)cc2)n1)NCc1ccc(F)cc1	0.2	13%	1.1%	7%	5.1%	-0.5	6%
Cc1c(C)c(C)c(C(=O)c2ccc(NC(=O)c3ccccc3C(=O)O)cc2)c(C)c1C	-0.6	8%	-4.3%	2%[15.4 µM]	-0.1%	-5.7	-6%
Cc1c(C(=O)N2CCN(c3ccccc3)CC2)sc2ncnc(N3CCN(c4ccccn4)CC3)c12	-5.3	-1%	·	12%[15.4 µM]	0.8%	7.6	-8%
COC(=O)C(C)NC(=O)COc1ccc2ccccc2c1 (stereo unspecified)	-3.6	13%	·	-22%[15.4 µM]	24%	2.0	3%
Cc1ccc(Cn2ccsc2=NC(=O)COC(=O)c2ccc(NC(=O)CC#N)cc2)cc1	2.8	·	-2.6%	11%	2.4%	·	-16%
